# Mtb betalactam: beta-lactam sensitization of Mtb H37Rv, H37Rv; M. tuberculosis H37Rv growth with meropenem, percent inhibition; hits of this screen are not shown here; inhibition, % at 25 µM; 330,000 tested, 0.27% active;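 active = about 74% or more and at least 40 points above the plate without the antibiotic, then above 30% in a dose series; inconclusive = first-round hits that could not be retested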;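 note: growth measured after seven days incubation then overnight dye step; 0% = bacteria only wells and 100% = bacteria with antibiotic; twin plates without the antibiotic show which effects depend on it; some results filed as inactive read as strong as hits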
# Mtb H37Rv: M. tuberculosis H37Rv growth inhibitors, H37Rv strain (AID 1626) | 220,000 tested, 0.95% active | one-dose inhibition, % at 10 µM; IC50 in µM for titrated hits | M. tuberculosis H37Rv growth inhibition; higher % means a stronger effect;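 active = confirmed in a dose series; inconclusive = inhibition above 80% but not taken into the dose series; inactive = below 80% or under 30% at every dose of the series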;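 note: bacteria incubated seven days before Alamar blue readout; 0% = bacteria only wells and 100% = bacteria with antibiotic wells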
# RecA splice inh: Mtb RecA intein splicing inhibitors, primary screen, biochemical, fluorescence, HTS; Protein RecA (Mycobacterium tuberculosis (strain ATCC 25618 / H37Rv)), P9WHJ3; cell-free RecA intein splicing; inhibition, %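 (about 9 µM by stock and volumes)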; 290,000 tested, 0.75% active; AID 2221, 2009; in the data active = inhibition above about 30%; inconclusive = no clear call, values can overlap the other calls;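 note: 0% = vehicle wells and 100% = reference inhibitor control wells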
# Target sequence (P9WHJ3 whole entry, looked up, canonical isoform): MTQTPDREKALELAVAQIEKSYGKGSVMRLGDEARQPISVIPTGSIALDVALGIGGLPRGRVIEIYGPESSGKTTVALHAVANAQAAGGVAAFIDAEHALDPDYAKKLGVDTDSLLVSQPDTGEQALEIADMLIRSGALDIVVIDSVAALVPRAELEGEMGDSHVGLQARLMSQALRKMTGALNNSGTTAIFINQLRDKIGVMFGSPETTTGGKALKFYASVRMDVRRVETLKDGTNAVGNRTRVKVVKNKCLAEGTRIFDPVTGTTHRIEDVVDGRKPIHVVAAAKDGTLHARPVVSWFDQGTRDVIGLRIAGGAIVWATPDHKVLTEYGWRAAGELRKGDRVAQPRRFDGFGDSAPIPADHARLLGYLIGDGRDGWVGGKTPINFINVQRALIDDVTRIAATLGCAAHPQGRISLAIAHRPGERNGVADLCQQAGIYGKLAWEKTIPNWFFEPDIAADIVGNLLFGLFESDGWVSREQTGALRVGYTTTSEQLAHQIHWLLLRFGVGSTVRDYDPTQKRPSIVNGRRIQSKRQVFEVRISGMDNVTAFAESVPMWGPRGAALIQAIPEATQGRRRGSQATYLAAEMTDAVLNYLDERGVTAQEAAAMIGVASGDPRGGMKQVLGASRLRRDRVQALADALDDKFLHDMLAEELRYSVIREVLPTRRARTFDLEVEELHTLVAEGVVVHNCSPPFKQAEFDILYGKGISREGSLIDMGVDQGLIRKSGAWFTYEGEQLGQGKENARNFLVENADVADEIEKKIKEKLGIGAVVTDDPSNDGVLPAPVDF
# YopH inh: YopH tyrosine phosphatase inhibitors, primary screen, biochemical, fluorescence Ex485/Em525. YopH tyrosine phosphatase [Yersinia enterocolitica]. inhibition, %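 (about 10 µM by stock and volumes)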. 140,000 tested, 0.16% active;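 active = inhibition of 50% or more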;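 note: controls were vehicle for no effect and minimum signal wells for full effect; inactives centre near -20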
# Arbovirus inh: antivirals against arbovirus infection, primary screen, cell-based, full library, 10K replicate subset. arbovirus infection cell-based antiviral screen. 200,000 tested, 0.37% active. inhibition, % at 10 µM;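 active = inhibition from about 30%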;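 note: bluetongue infection of BSR cells; cell survival read as ATP light after 72 h; 0% = infected wells without compound and 100% = uninfected wells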
# Arbovirus inh repeat: second read-out of Arbovirus inh, no call of its own (marks repeat the call); inhibition, %; measured here: 10K subset replicate screen; many hits read low in the repeat;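 first of two repeat runs on a subset; 0% = infected and 100% = uninfected wells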
# Active calls of the source: *; u = inconclusive; x = not tested or not shown.
SMILES,Mtb betalactam,Mtb H37Rv,RecA splice inh,YopH inh,Arbovirus inh,others
CCCNC(=O)COC(=O)c1ccccc1OCc1ccc(Cl)cc1,0,3%,x,-18,4,
O=Cc1cn(CC(=O)N2CCc3ccccc32)c2ccccc12,-9,0%,1.6,x,2,
O=C(c1ccc(-c2nc3ccccc3s2)o1)N1CCN(c2ccccc2O)CC1,96,x,3.7,x,x,
CCOc1ccc(N2Cc3ccccc3C2)cc1,98,78%,4.8,0,x,
COc1cccc(-c2nc(-c3cccs3)no2)c1,5,-3%,-0.3,x,x,
O=C(Nc1cccnc1)c1cccc([N+](=O)[O-])c1,0,-9%,-0.8,x,x,
COc1ccc(/C(C)=N/NC(=O)c2nnn(-c3nonc3N)c2-c2ccccc2)cc1,4,x,-2.2,x,x,
Cc1ccc(C(c2nnnn2C(C)(C)C)N2CCN(C3CCCC3)CC2)cc1 (centres undefined),-10,-5%,-1.4,-47,-2,
Cc1ccc(C(=O)N2CCN(c3ncccn3)CC2)o1,-7,-8%,0.5,16,-2,
COc1ccc(N2CCN(C(=O)c3ccc4c(c3)NC(=O)C(CSCc3c(F)cccc3Cl)N4)CC2)cc1 (centres undefined),2,x,17,x,x,
C=CCn1cnc2c(NCc3ccccc3)ncnc21,-2,-4%,3.4,-32,-2,
Nc1ncc2c(n1)CC(c1ccco1)CC2=O (centres undefined),35,3%,1.7,-23,2,
COc1ccc(CNC(=O)CNC(=O)[C@@H]2Cc3ccccc3CN2)cc1,4,x,1.0,x,x,
COc1ccc2c(C=O)c[nH]c2c1,3,14%,-3.6,-29,-7,
Cc1ccc(NC(=O)C2=C(O)c3sccc3N(C)S2(=O)=O)cc1,-4,-12%,0.3,-40,9,
CCCc1nnc(NC(=O)Cn2cnc3ccccc3c2=O)s1,5,-2%,-0.3,-43,1,
Cc1nc(N2CCc3ccccc3C2)[nH]c(=O)c1Cc1ccccc1,4,-2%,-0.1,x,-4,
CCOc1ccc(-c2nnn(CC(=O)N3CCCC(C)C3)n2)cc1 (centres undefined),0,-6%,-2.3,x,0,
COc1ccc2cc(C(=O)N/N=C/c3sc4ccccc4c3O)ccc2c1,38,17%,-8.0,-34,-28,
COc1ccc(/C=c2/sc3n(c2=O)NC2(c4ccccc4)N(C)C(=O)N(C)C2(c2ccccc2)N=3)cc1 (centres undefined),0,55%,0.9,-31,-4,
Cn1cc(C=C2C(=O)CC(C)(C)CC2=O)c2ccccc21,4,5%,-1.8,-18,9,
CC(C)(C)c1ccc(C(=O)NCCOc2ccccc2)cc1,3,x,-0.7,x,x,
O=C(c1ccc(-c2ccccc2)cc1)C1CCCN(Cc2ccncc2)C1 (centres undefined),84,42%,6.8,x,-16,
COc1ccc(/C=C(\C#N)C(=O)N2COCC2(C)C)cc1,-1,x,-1.3,x,x,
COCCNC(=O)CSc1nc2nn(-c3ccccc3)c(=O)c-2c2n1CCCCC2,-8,6%,-2.1,x,10,
Cc1ccc(S(=O)(=O)C2(C(=O)Nc3ccc(F)cc3)CC2)cc1,-6,-3%,-0.7,-1,2,
CC(CCc1ccccc1)NC(=S)NC1CCCCC1 (centres undefined),-6,2%,0.7,x,5,
CCN1CCN(c2ccc(N3CCN(S(=O)(=O)c4cc([N+](=O)[O-])ccc4C)CC3)nn2)CC1,-1,x,-2.5,x,x,
O=C1/C(=C/c2ccccc2)SC(=S)N1CC(=O)N1CCCCC1c1cccnc1 (centres undefined),70,x,14,x,x,
O=C(CCNC(=O)C1CCN(S(=O)(=O)c2ccc(F)cc2)CC1)Nc1nccs1,-1,x,-2.7,x,x,
COc1ccccc1OCCNC(=O)CNC(=O)c1ccc2c(c1)OCO2,5,x,-0.6,x,x,
COC(=O)Cc1cc(=O)[nH]c(/N=C(\N)Nc2ccc(C)cc2C)n1,-21,-14%,-1.0,-44,-1,
Cc1c(C)c2c(C)nn(-c3ccccc3)c2[nH]c1=O,-14,2%,1.3,-18,10,
CC(C)(C)NC(=O)/C(=C\c1ccco1)NC(=O)c1ccco1,4,x,-4.8,x,x,
Cn1cc(CN2CCC(N3CCNC(=O)CC3)CC2)c(-c2ccccc2F)n1,-2,-5%,-1.5,x,2,
N#CC1(NC(=O)CSc2nc3ccc([N+](=O)[O-])cc3s2)CCCCC1,3,x,5.3,x,x,

# Molecules listed so far that have a furan ring, fused or not:
SMILES,Mtb betalactam,Mtb H37Rv,RecA splice inh,YopH inh,Arbovirus inh,others
O=C(c1ccc(-c2nc3ccccc3s2)o1)N1CCN(c2ccccc2O)CC1,96,x,3.7,x,x,
Cc1ccc(C(=O)N2CCN(c3ncccn3)CC2)o1,-7,-8%,0.5,16,-2,
Nc1ncc2c(n1)CC(c1ccco1)CC2=O (centres undefined),35,3%,1.7,-23,2,
CC(C)(C)NC(=O)/C(=C\c1ccco1)NC(=O)c1ccco1,4,x,-4.8,x,x,

# (continued)
SMILES,Mtb betalactam,Mtb H37Rv,RecA splice inh,YopH inh,Arbovirus inh,others
CCn1c(C)c(Br)c(=O)c(C(=O)OC)c1-c1ccc(Cl)cc1,-7,x,-2.7,x,x,
CC(C)c1onc(C(=O)NCc2ccccc2)c1[N+](=O)[O-],0,1%,3.7,-19,11,
C=CCSc1nc2ccccc2n1C(=O)/C=C/c1cc(OC)c(OC)c(OC)c1,31,x,6.4,-21,-48,
O=C1COc2ccc(S(=O)(=O)N3CCC(C(=O)NCc4ccccc4)CC3)cc2N1,-6,x,1.7,x,x,
COc1ccc(CCNC(=O)CCSc2nc(-c3ccco3)cc(C(F)(F)F)n2)cc1,-10,3%,0.5,-36,-13,
CCOc1cc(NC(=O)c2ccco2)c(OCC)cc1NC(=O)c1ccco1,1,x,-3.7,x,x,
COc1ccc(OC)c(NC(=O)CCN2CCN(c3ccccc3F)CC2)c1,-3,-10%,0.0,3,11,
COc1ccc(CNC(=O)CCC(=O)N2CCN(C(C)=O)CC2)cc1,-13,x,-1.2,x,x,
O=C(NC1C/C(=N/O)c2cc3c(cc21)OCO3)C(F)(F)F (centres undefined),-2,2%,1.4,x,4,
Cc1ccc2c(c1)N(C(=O)CCC(=O)NCc1cccnc1)CCO2,-3,x,0.8,x,x,
Cc1cccc(CC2S/C(=N/N=C/c3ccco3)N(c3ccccc3)C2=O)c1 (centres undefined),3,-1%,-0.1,-20,-2,
CCCCCCC(=O)N(O)C1CC(=O)N(c2ccccc2)C1=O (centres undefined),28,4%,-4.2,-45,0,

# 4 records drawn at random from those above:
SMILES,Mtb betalactam,Mtb H37Rv,RecA splice inh,YopH inh,Arbovirus inh,others
C=CCSc1nc2ccccc2n1C(=O)/C=C/c1cc(OC)c(OC)c(OC)c1,31,x,6.4,-21,-48,
CCn1c(C)c(Br)c(=O)c(C(=O)OC)c1-c1ccc(Cl)cc1,-7,x,-2.7,x,x,
COc1ccc(OC)c(NC(=O)CCN2CCN(c3ccccc3F)CC2)c1,-3,-10%,0.0,3,11,
CCOc1cc(NC(=O)c2ccco2)c(OCC)cc1NC(=O)c1ccco1,1,x,-3.7,x,x,

# The listing continues.
SMILES,Mtb betalactam,Mtb H37Rv,RecA splice inh,YopH inh,Arbovirus inh,others
CN(C(=O)COc1ccc(Br)cc1Cl)C1CCCCC1,-10,7%,5.2,x,-4,
CSc1nc(N2CCN(Cc3ccc4c(c3)OCO4)CC2)c2ccccc2n1,77,x,1.1,x,x,
O=C(CCS(=O)(=O)c1cccc2nonc12)NCCc1ccccc1Cl,74,12%,0.8,-2,4,Arbovirus inh repeat=-4
Cc1nn2c(N3CCN(C4CCCC4)CC3)cc(C(C)(C)C)nc2c1-c1ccccc1,-11,8%,-0.5,-7,0,
O=C(O)CC1c2ccccc2S(=O)(=O)N1Cc1ccccc1 (centres undefined),-8,3%,0.6,x,x,
CC1CCN(S(=O)(=O)c2cccc(C(=O)N(Cc3ccccc3)c3ccccn3)c2)CC1,-6,4%,4.8,x,-2,
Cc1ccc2c(C(=O)CN3CCCCC3)c(C)[nH]c2c1,-4,x,-0.3,x,x,
Cc1cc(C)n(C(=O)CN2C(=O)COc3ccccc32)n1,-1,-2%,5.3,-9,2,
O=C(Nc1ccc(-c2cn3ccsc3n2)cc1)C1CCCC1,27,4%,-1.1,-28,-29,
CCOc1ccccc1NC(=O)c1c(Br)cnn1C,10,9%,4.0,-19,-12,
CN(Cc1cn(-c2ccccc2)nc1-c1ccc(F)cc1)C(=O)CCC(=O)O,-9,-1%,-1.6,-26,3,
CC(=O)Nc1ccc(-c2csc(NCc3ccccc3)n2)cc1,27,-2%,-2.3,x,-11,
CC(C)(C)Cc1nnc(NS(=O)(=O)c2ccccc2)s1,1,-1%,1.0,x,5,
O=C(CSc1nnc(Cc2ccccc2)o1)NCc1ccco1,-23,8%,2.2,-3,2,
COc1cccc(Nc2ccc([N+](=O)[O-])c3nonc23)c1,97,x,2.8,x,x,
Cc1cc2ncn(C(=O)N3CCCC3)c2cc1C,-8,-7%,-1.9,-18,2,
COc1cc(OC)cc(C(=O)NCC(=O)NC(C)c2ccccc2)c1 (centres undefined),-4,x,-0.1,x,x,
Cc1ccc(-n2ccc(=O)c(C(=O)Nc3ccc(S(=O)(=O)Nc4onc(C)c4C)cc3)n2)cc1,64,x,0.8,x,x,
Cc1cccc(NC2=NCCCS2)c1,-9,-2%,-0.8,x,x,
C/C(=N\NC(=O)CNc1cccc2ccccc12)c1ccccc1,17,0%,-1.1,x,-2,
COc1ccc(/C=C2\N=C3CCCCCN3C2=O)cc1,-4,4%,-4.4,x,-1,
O=C(COC(=O)c1ccc[nH]c1=O)NC1CCCCCCC1,-3,5%,0.8,x,11,
COc1ccc(-c2c(C(F)(F)F)nn(C)c2NC(=O)c2ccco2)cc1,2,0%,4.2,x,x,
O=C(NCCN1CCOCC1)C1CC(=O)N(c2ccc(F)c(Cl)c2)C1 (centres undefined),1,10%,0.0,-19,-1,
CCOC(=O)c1oc2cccc(O)c2c1C,7,5%,-3.5,-19,10,
COCCCN1C(=O)C(=O)/C(=C(/O)c2ccc(S(=O)(=O)N3CCCCC3)cc2)C1c1ccc(F)cc1 (centres undefined),0,x,0.4,x,x,
O=C(Nc1cnn(Cc2ccc(F)cc2)c1)c1cnn2c(C(F)F)cc(-c3ccccc3)nc12,-5,3%,x,x,x,
Cc1nnc(SCC(=O)NC2CCCCC2)s1,-4,5%,x,x,4,
Cc1ccccc1NC(=O)CCC(=O)N/N=C/c1ccncc1,-3,x,-1.3,x,x,
Cc1cc(C)nc(-n2ncc3c2CCCC3=O)n1,7,3%,-2.5,x,1,
C#CCOCCOCCOCCNc1nc(N2CCN(C(=O)Cn3cc(CCO)nn3)CC2)nc(N2CCN(C(=O)[C@H]([C@@H](C)O)n3cc(CCCCN)nn3)CC2)n1,-1,-2%,-1.0,-11,3,
Cc1ccccc1Nc1c([N+](=O)[O-])ccc2c1=NC1(CCCCC1)N=2,-7,-3%,-7.3,-47,1,
Fc1ccc(Cn2cccc2C2=NC(c3ccccc3)CO2)cc1 (centres undefined),9,17%,6.6,x,5,
CCCc1cc(=O)[nH]c(SCC(=O)NCCC2=CCCCC2)n1,-1,-6%,x,x,5,
COc1ccc(C(=O)/C=C/NCc2ccc(F)cc2)cc1OC,-8,6%,1.8,x,x,
O=C(NCc1ccc2c(c1)OCO2)C1CC(c2ccc(Cl)c(Cl)c2)=NO1 (centres undefined),8,3%,-4.3,-131,-6,
N=c1nc(-c2ccccc2)ccn1O,1,-10%,-0.8,-15,1,
O=C(Nc1ncc(Cc2cccc(Cl)c2)s1)c1cccs1,91,u,10,-1,-49,
CCC(CC)c1nnc(NC(=O)c2ccc3c(c2)OCO3)s1,6,x,-0.7,x,x,
COc1ccc(-n2c(SCC(=O)N3CCN(c4ccccc4)CC3)nc3c(c2=O)SCC3)cc1,1,1%,2.8,-25,9,
CN(C(=O)COC(=O)c1cc(-c2ccc(Cl)s2)nc2ccccc12)C1CCS(=O)(=O)C1 (centres undefined),31,-3%,x,x,5,
CC(NC(=O)c1ccc(C(C)(C)C)cc1)C(c1cccs1)N1CCOCC1 (centres undefined),4,x,0.9,x,x,
O=S(=O)(/N=C(/Nc1ccc(Cl)c(S(=O)(=O)Nc2ccccc2Cl)c1)c1ccc(F)cc1)c1ccccc1,5,2%,8.0,x,-6,
COc1ccc(S(=O)(=O)CCC(=O)NCCc2ccc(Cl)cc2)cc1,-8,-3%,-0.8,-10,6,
CC(C)NC(=O)NC1C2CC3CC(C2)CC1C3 (centres undefined),-2,-2%,-7.4,-27,1,
O=C(O)c1ccccc1C(=O)Nc1ccc(S(=O)(=O)N2CCCC2)cc1,-4,x,-2.3,x,x,

# Screens from PubChem BioAssay.

# Not all compounds are listed, so the mix of outcomes need not match the whole.
